# Screening results (PubChem)
# Sfp inh: blocks B. subtilis Sfp PPTase activity. Q9F4F7. Biochemical Sfp PPTase activity, qHTS. Potency, µM, inactives show max response, negative = inhibition, hits mostly inhibitors. 3.5% of 310,000 active; active means well fitted inhibition curve with a large enough effect; inconclusive means small, poorly fitted or top-dose-only effect, or another doubt; inactive means no such curve, though single readings can be large or run the other way;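 further: the enzyme is Sfp with the accession as filed and its product quenches rhodamine fluorescence; potency means the concentration at half of the fitted maximal effect; 0% = enzyme reaction without inhibitor and -100% = no enzyme wells; top concentration of the series not given in the record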
#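 Fluorescence-quenching assay: 15 nM Sfp-PPTase preincubated 15 min at room temperature with compound, then 5 uM rhodamine-CoA and 12.5 uM BHQ-2-labelled YbbR peptide added. Fluorescence (ex 525/em 598 nm) read at start and after 30 min; difference gives rate.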
# Menin MLL FP FL: inhibitors of human menin-MLL interaction, wild-type MLL peptide; Fluorescence polarization, fluorescein-MLL peptide displacement from menin; FP activity change, % at 61.4 µM; 290,000 tested, under 10 active; inconclusive = falling polarisation curve, or a change in total fluorescence; inactive = total fluorescence flat and polarisation flat or rising; no compound was filed as active; the % refers to the polarisation; negative = inhibition;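 further: % of control where 0% means no effect; inhibitors lower the polarisation; unlabelled MLL peptide was the positive control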
# TRPV1 PAM: potentiators of human vanilloid receptor 1 (TRPV1) | Q8NER1 | TRPV1-expressing cells, Fluo-8 calcium influx, capsaicin EC20 potentiation; host cell line not named in the record; control for the full effect not named in the record | potentiation, % at 8.33 µM | 0.02% of 320,000 active | AID 540277; active means potentiation above 80%; inconclusive means 30% to 80%; inactive means below 30%; further: 0% is about no effect
# Target sequence (Q8NER1 whole entry, looked up): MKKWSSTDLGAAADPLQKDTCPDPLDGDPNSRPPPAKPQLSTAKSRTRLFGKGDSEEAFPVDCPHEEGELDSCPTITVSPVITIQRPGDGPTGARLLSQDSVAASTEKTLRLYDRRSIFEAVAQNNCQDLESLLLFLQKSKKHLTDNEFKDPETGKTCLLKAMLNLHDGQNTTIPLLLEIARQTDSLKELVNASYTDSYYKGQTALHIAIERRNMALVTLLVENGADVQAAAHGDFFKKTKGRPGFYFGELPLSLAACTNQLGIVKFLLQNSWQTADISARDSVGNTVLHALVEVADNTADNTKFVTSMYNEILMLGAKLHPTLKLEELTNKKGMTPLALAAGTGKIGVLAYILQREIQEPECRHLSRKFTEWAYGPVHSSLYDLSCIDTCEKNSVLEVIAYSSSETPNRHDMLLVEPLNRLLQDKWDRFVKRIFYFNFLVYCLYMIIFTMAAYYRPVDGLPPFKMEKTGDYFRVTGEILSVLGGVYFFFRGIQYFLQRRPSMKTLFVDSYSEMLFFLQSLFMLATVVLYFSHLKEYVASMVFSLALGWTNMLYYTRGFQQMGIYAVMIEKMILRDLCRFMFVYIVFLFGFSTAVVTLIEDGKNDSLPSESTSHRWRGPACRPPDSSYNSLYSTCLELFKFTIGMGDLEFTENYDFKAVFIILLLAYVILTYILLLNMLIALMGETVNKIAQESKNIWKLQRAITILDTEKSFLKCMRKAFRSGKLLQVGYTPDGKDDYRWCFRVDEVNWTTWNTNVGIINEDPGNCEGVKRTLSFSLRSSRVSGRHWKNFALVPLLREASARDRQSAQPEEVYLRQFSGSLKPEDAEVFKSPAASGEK
#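 Cells expressing TRPV1 were dye-loaded with Fluo-8 and read kinetically: 10 s baseline, 3 min after compound (agonist portion), then 2 min after EC20 capsaicin (allosteric enhancer portion). Calcium-bound dye fluorescence at 480/520 nm.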
# ClpP mod: qHTS Assay for Activators of ClpP; purified B. subtilis ClpP, FRET peptide cleavage, 20 min; ATP-dependent Clp protease proteolytic subunit (Bacillus subtilis (strain 168)), P80244; Potency, µM (highest dose often 57.5 µM), for inactives: at the highest dose activity change, negative = active; 1.9% of 340,000 active; active = well fitted falling curve with a large enough effect; inconclusive = small, poorly fitted or top-dose-only effect; inactive = no such curve, though single readings can be large or run the other way; further: potency means the concentration at half of the fitted maximal effect; the source files actives as falling curves though it sought activators and does not explain the sign; nearly all actives have a fitted effect of over 65% in size; many hits overshoot -100%
# Target sequence (P80244 whole entry, looked up): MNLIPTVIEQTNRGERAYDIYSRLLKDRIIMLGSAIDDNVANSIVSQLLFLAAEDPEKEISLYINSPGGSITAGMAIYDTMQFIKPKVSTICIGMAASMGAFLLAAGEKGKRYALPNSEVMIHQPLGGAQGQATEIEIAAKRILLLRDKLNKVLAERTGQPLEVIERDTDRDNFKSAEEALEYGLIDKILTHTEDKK
#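 Buffer: 100 mM Tris/HCl pH8, 100 mM KCl, 0.05% low protease BSA, 2.5% glycerol, 0.01% Tween-20. ClpP 10 microg/mL final; 20 min RT; delta FRET normalized to ADEP and DMSO controls.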
# TRPML1 blocker: blocks the human TRPML1 channel; AID 624415; 0.02% of 390,000 active; TRPML1-inducible cells, Ca2+ dye fluorescence, FDSS; hits give low values; inhibition of EC80 agonist-evoked calcium signal; activity change, negative = inhibition, % (no concentration beside the values); Q9GZU1; in the data active means activity change below about -50%; inconclusive means about -30% to -50%; inactive means above about -30%;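 further: stimulus is agonist 54-4 at its EC80 concentration; on the % scale 0 is the no-effect control and ±100 the full control effect; compound concentration not given in the record; the text of the record puts the active cut at -80%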
#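 TRPML1-DL cells, Tet-induced overnight (~16 h, 37 °C) at 1,500 cells/well, were loaded with Ca8 no-wash dye plus quencher for 45-90 min at room temperature. Compounds were pinned during FDSS kinetic reading; agonist 54-4 at EC80 (4 uM final) then added.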
# gsp ag: activates gsp, the McCune-Albright syndrome mutation. gsp mutant cells, cAMP HTRF, 30 min; control for the full effect not named in the record. Potency, µM (titrated, usually from 76.9 µM), for the others: at the top dose activation (cAMP increase), most hits filed as activators. 0.13% of 340,000 active. AID 624287; active = well fitted activation curve with a large enough effect; inconclusive = small, poorly fitted or top-dose-only effect, or another doubt; inactive = no such curve, though single readings can be large or run the other way; cell line not stated here;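 further: phosphodiesterase inhibitor Ro 20-1724 added with compounds to block cAMP breakdown; potency means the concentration at half of the fitted maximal effect; nearly all actives have a fitted effect of over 60% in size; about a fifth of the inactives were tested at one dose only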
#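 Cells in DMEM/10% FBS with G418 were pretreated with compounds in DMSO plus […] (300 uM stock) for 30 min at 37C. cAMP was measured by HTRF (cAMP-d2 plus anti-cAMP antibody-K) after 30 min at room temperature.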
# gsp antagonist: antagonizes gsp, the McCune-Albright syndrome mutation; Potency, µM (top dose mostly 76.9 µM), inactives show at the highest dose activity change, negative = inhibition, usual class: inhibitors; gsp-mutant cells, cAMP HTRF, 30 min; control for the full effect not named in the record; 0.4% of 340,000 active; active = falling curve of any shape with a large fitted effect; inconclusive = falling curve, mostly with a smaller effect; inactive = flat or rising curve; cell line not stated here;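 further: intracellular cAMP measured with PDE inhibitor Ro 20-1724 present during compound exposure; potency means the concentration at half of the fitted maximal effect; on the % scale 0 is the no-effect control and ±100 the full control effect; nearly all actives have a fitted effect of over 65% in size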
#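 Cells in G418 medium, seeded 16-24 h, 37C; buffer exchange to DPBS + 1 mM CaCl2, 0.5 mM MgCl2, 0.05% BSA; cpds in DMSO + […] (300 uM stock), 30 min 37C; HTRF cAMP detection.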
# * marks the source's active call; other numbers are inactive results; ? = inconclusive; / = not tested or not shown; [ ] = dose if it differs, or a comment. No enrichment for hits; about 4.9% have a hit in one of these screens.
SMILES,Sfp inh,Menin MLL FP FL,TRPV1 PAM,ClpP mod,TRPML1 blocker,gsp ag,gsp antagonist
COc1cc(NC(=O)COC(=O)/C=C/c2c(C)nn(C3CCS(=O)(=O)C3)c2Cl)cc(OC)c1OC (stereo not given),13.4%,0.4,1.6,-1.2%,-12.2,29.1%,2.5%
COc1ccc(C)cc1S(=O)(=O)N1CCC(C(=O)N2CCN(C)CC2)CC1,1.9%,2.5,14.9,1.5%,4.5,-8.7%,12.9%
c1ccc2[nH]c(N3CCOCC3)nc2c1,6.7%,-0.3,2.6,-2.4%,19.6,-2.0%,4.2%
Cc1ccccc1C(=O)NC(CC(C)C)C(=O)Nc1ccc(S(N)(=O)=O)cc1 (stereo not given),16.8%,1.9,11.2,0.8%,-4.3,12.7%,7.5%
Cc1nc2ccccc2c(=O)n1-c1ccc(F)c(NS(=O)(=O)c2ccccc2F)c1,/,/,14.8,-1.2%,16.8,-1.2%,-2.2%
O=C(CN1C(=O)COc2ccccc21)N(CCCN1CCOCC1)CC1CC=CCC1 (stereo not given),1.4%,3.9,-32.4,-2.8%,6.5,-24.3%,4.5%
Cc1ccc(S(=O)(=O)NCCC(=O)NC2CCCCC2)cc1,/,/,/,2.7%,-2.4,-18.9%,11.2%
O=C(CSc1nn(-c2ccc(F)cc2)c(=S)s1)NC(=O)NCc1ccco1,0.9%,11.2,-6.1,-2.8%,-6.6,-27.5%,-10.4%
COC(=O)c1ccc(OC)c(-c2c(OC)cc(OC)cc2OC)c1,3.7%,-0.5,-4.0,-2.1%,-17.6,-0.2%[15.4 µM],2.8%
Clc1ccc(SCCCCN2CCOCC2)cc1,-36.0%,0.4,11.1,-1.3%,-17.1,0.3%[15.4 µM],9.4%
COc1cccc(NC(=O)COC(=O)Cc2ccccc2[N+](=O)[O-])c1,18.4%,0.4,-8.3,-0.6%,-10.6,2.5%[15.4 µM],-3.1%
CC1Sc2ccc(S(=O)(=O)CCC(=O)N3CCCC3)cc2NC1=O (stereo not given),17.8%,2.7,5.5,0.0%,-5.3,-25.1%,-10.1%
CC(C)CN(C(=O)CN1C(=O)NC(c2ccccc2)(c2ccccc2)C1=O)C1CCS(=O)(=O)C1 (stereo not given),/,/,20.7,1.2%,4.9,-34.1%[inhibitor],-3.6%
COCCn1c(N)c(C(=O)c2cccc(S(=O)(=O)N3CCCCCC3)c2)c(=O)[nH]c1=O,/,/,-5.9,1.8%,-13.6,-0.6%,-35.3%
CCC1(c2ccccc2)NC(=O)N(CC(=O)NNC(=O)c2ccc(F)cc2)C1=O (stereo not given),/,/,2.3,0.5%,-4.3,1.9%,13.5%
COc1ccc(C2=NOC(Cn3nc(-c4ccccc4)cc3C(=O)NCc3cccc(Br)c3)C2)cc1 (stereo not given),/,/,/,-8.4%,10.0,/,0.9%
CCNC(=S)NCc1ccc(OC)c(OC)c1,18.7%,-2.5,-18.1,1.3%,-10.0,-1.2%[15.4 µM],10.3%
O=c1c2cc(F)ccc2sn1-c1ccc(F)cc1,/,/,4.4,-9.9%,-12.5,/,?
Cc1ccc(C(NC(=O)Nc2ccccn2)C(Cl)(Cl)Cl)cc1F (stereo not given),7.1%,-10.0,-12.8,/,-3.2,10.8%,-6.9%
Cc1csc(NC(=O)c2ccc(C)c([N+](=O)[O-])c2)n1,?,0.0,-23.4,1.5%,-4.7,-5.7%,-2.0%
COc1ccc2c(=O)c(C(=O)O)c(-c3ccc4c(c3)OCO4)n(C)c2c1,10.7%,1.9,-8.7,?,-9.0,26.0%,9.6%
C#CCNc1nc(C(C)C)nc2c1nnn2Cc1ccccc1F,18.8%,-1.3,-4.5,0.7%,3.2,11.4%,6.2%
Cc1ccc(Cl)cc1NC(=S)N/N=C/c1cccc2ccccc12,20.9%,5.2,/,/,19.9,0.6%[15.4 µM],11.8%
COc1ccc(C2(C)NC(=O)N(CC(=O)NC3(C#N)CCCCC3)C2=O)cc1 (stereo not given),18.1%,/,-0.1,-1.3%,7.3,24.0%,-2.1%
Cc1cc(C(=O)CSc2nnc(C3COc4ccccc4O3)n2C)c(C)n1-c1ccc(F)cc1 (stereo not given),-24.1%,1.7,0.3,-0.3%,18.6,15.1%,7.3%
CCOc1ccc(CNC(=O)C2Cc3cc(S(=O)(=O)N4CCCCC4)ccc3N2C(C)=O)cc1 (stereo not given),18.0%,/,20.9,2.0%,7.3,-2.7%,10.7%
C#CCOCCOCCOCCNc1nc(N2CCOCC2)nc(N2CCN(C(=O)[C@H](Cc3ccc(O)cc3)n3cc([C@@H](N)CC(C)C)nn3)CC2)n1,9.5%,2.1,-5.2,-3.5%,-11.3,-17.7%,9.9%
CC(CC(=O)Nc1ccc(C(N)=O)cc1)c1ccccc1 (stereo not given),10.9%,7.4,-21.8,-3.4%,-20.9,18.5%,-9.0%
COC(=O)c1ccc2c(=O)n(CC3CCCO3)c(SCC(=O)Nc3ccccc3OC)nc2c1 (stereo not given),?,2.7,4.7,-2.0%,15.8,8.6%,-22.5%
CS(=O)(=O)N(CCc1ccccc1)CC(=O)Nc1ccc(OCc2ccccc2)cc1,4.9%,2.3,-5.2,-1.6%,42.4,-30.7%[inhibitor],-11.5%
Nc1ccc2nc3n(c(=O)c2c1)CCC3,26.7%,10.3,/,4.3%,?,-1.0%,-6.5%
Cc1nn(CC(=O)NNC(=S)Nc2ccccc2)c(C)c1[N+](=O)[O-],16.0%,2.6,-6.6,-1.2%,-0.9,?,-12.5%
O=C(COC(=O)/C=C/c1cccc(F)c1)NC(=O)NC1CCCC1,/,/,/,-1.2%,-4.1,-5.3%,0.5%
COc1ccc(OCCCC(=O)OC(C)C(=O)Nc2cccc(C(C)=O)c2)cc1 (stereo not given),8.5%,/,?,-3.8%,30.4,7.7%[15.4 µM],-5.9%
Cc1cc(NC(=O)CSc2n[nH]c(=O)[nH]c2=O)ccc1Br,30.4%[activator],-3.4,-1.2,-0.1%,10.4,-7.8%,5.2%
COC(=O)c1ccccc1NC(=O)CN(C)S(=O)(=O)c1ccc(OC)c(C)c1,11.3%,5.6,-8.4,-12.4%,-12.4,-22.9%,-26.7%
Cc1ccc(S(=O)(=O)Nc2cc(C(=O)N3CCOCC3)ccc2N2CCCCC2)cc1,3.1%,2.4,-0.3,-2.0%,27.6,18.4%,-6.9%
COc1nc(N(C)C)nc(-n2nnc(C(C)=O)c2C)n1,16.0%,1.6,-3.0,-0.8%,-3.5,14.3%,20.2%
COC(CNS(=O)(=O)c1cc2c3c(c1)CCN3C(=O)CC2)OC,7.1%,3.0,-7.8,1.6%,-27.1,-0.6%,14.8%
O=C(CCc1nc2sc3c(c2c(=O)[nH]1)CCCC3)N1CCN(c2ccccc2)CC1,/,/,2.5,/,-21.3,-22.7%[15.4 µM],1.5%
O=C(NCCC1=CCCCC1)C1CCN(C(=O)c2ccc(Cl)cc2)CC1,6.3%,0.4,-4.6,0.2%,28.0,-13.6%,-9.9%
COc1ccc(CN(CCC#N)C(=S)NC(=O)c2ccccc2)cc1,-4.9%,-3.3,13.7,-0.8%,-6.3,12.3%,-2.3%
CN(C)CCNC(=O)CNC(=S)N(CCCN1CCOCC1)Cc1cccs1,-1.6%,-1.1,-18.6,/,11.0,-7.5%[15.4 µM],-0.3%
CC1=C(C)CC(C(=O)c2ccc(C)cc2)C(C(=O)O)C1 (stereo not given),16.0%,2.8,11.5,-1.5%,-0.8,-17.1%,-5.9%
CC(=O)N1CCC(N(CCN2CCOCC2)C(=S)Nc2ccc(C)c(C)c2)CC1,13.6%,1.0,13.9,/,-5.1,2.3%,-6.4%
CC1=C(C(=O)Nc2ccccn2)C(c2ccc(N(C)C)cc2)n2ncnc2N1 (stereo not given),17.3%,-1.3,7.1,-1.5%,-8.8,1.0%,6.3%
Cc1ccc(C(=O)c2c(NC(=O)c3ccccc3C)sc(C)c2C)cc1,?,2.4,/,-0.6%,-5.4,-14.6%,-5.5%
CCc1noc(C)c1C(=O)NNC(=O)COc1cc(C)ccc1C,/,/,16.8,2.0%,-1.8,1.9%,13.0%
COc1ccc(-c2cc(C(=O)N(C)Cc3ccccc3)c3ccccc3n2)cc1,-16.8%,5.2,-2.7,0.3%,23.2,-7.7%[15.4 µM],-27.5%
O=C(CCc1ccccc1)Nc1cccnc1,3.3%,0.2,-19.0,0.6%,-5.1,21.8%,3.6%
O=C(C[C@@H]1C[C@@H]2c3cc(NC(=O)C4CCC4)ccc3O[C@@H]2[C@@H](CO)O1)NCc1ccc(Cl)cc1,/,/,/,0.9%,11.9,-23.0%,/
CC(C)C(=O)Nc1nnc(SCC(=O)NC2CC2)s1,17.9%,3.5,-4.6,-1.5%,-10.6,6.0%,-1.2%
CCOC(=O)c1c(C)[nH]c(C)c1C(=O)COC(=O)Cc1ccc(OC)c(OC)c1,/,/,/,/,-6.3,?,-2.4%
Cc1cccc(NS(=O)(=O)c2cccc(C(=O)NCCCN3CCCC3=O)c2)c1,/,/,0.7,1.2%,3.5,12.4%,5.7%
CCOC(=O)/C(C#N)=C(\O)c1ccc(NC(=O)c2ccc([N+](=O)[O-])cc2)cc1,13.1%,6.6,-15.8,1.3%,8.0,?,-10.3%
CCOc1ccc(-n2c(N)c(-c3nc4ccccc4n3C)c3nc4ccccc4nc32)cc1,22.5%,-19.8,-2.4,-1.5%,-4.3,-34.5%[inhibitor],6.9%
Cc1ccc(S(C)(=O)=O)cc1C(=O)Nc1ccc(S(=O)(=O)Nc2nccs2)cc1,/,/,7.1,-0.6%,-14.6,?,1.6%
Cc1ccc(Nc2nnc(SCc3cc(=O)n4cc(C)ccc4n3)s2)cc1,1.7%,6.3,9.7,-1.5%,-1.0,-15.2%,-2.2%
